Source: PubChem (Broad Institute)
Vaccinia stage: blocks a specific stage of Vaccinia orthopoxvirus infection, primary screen, cell-based, single point; Vaccinia-infected cells, mCherry/Venus stage reporter fluorescence; stronger effect = lower value; some inactives read as strong as hits; activity change (mCherry), % (concentration not given with the values); 89,000 tested, 0.01% active; AID 1053133, 2014;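 active = mCherry past -33% and 40 or more points under the early reporter, replicates agreeing; inconclusive = past -33% without that gap or agreement; tested in A549 cells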;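 note: scaled between vehicle wells and reference inhibitor wells; 23 nL library stock went into each well; one replicate is shown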
Vaccinia stage Venus: second read-out of Vaccinia stage, no call of its own (marks repeat the call); activity change (Venus), %; measured here: Venus reporter, other viral stage;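 negative = less Venus signal; first of two replicates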
* hit, by the source's call; ? = inconclusive; · = no result given; & = joins results of further samples. An excerpt; count on the stated rates, not on these rows.

| molecule | Vaccinia stage | Vaccinia stage Venus |
| --- | --- | --- |
| CC(C)CC#Cc1ccc2c(c1)O[C@H](CN(C)Cc1ccc3c(c1)OCO3)[C@@H](C)CN([C@@H](C)CO)S2(=O)=O | ? | · |
| C[C@H](CO)N1C[C@H](C)[C@H](CN(C)Cc2cccnc2)Oc2ncc(-c3ccc(C#N)cc3)cc2C1=O | 9 | 8 |
| COc1cccc(CNC(=O)[C@@H]2[C@@H](CO)[C@@H]3Cn4c(cccc4=O)[C@H]2N3C(=O)C2CC2)c1 | 19 | 13 |
| O=C(Nc1ccc2c(c1)OCO2)N[C@H]1CC[C@H](CCNC(=O)C2CC2)O[C@H]1CO | 5 | -1 |
| C[C@H](CO)N1C[C@H](C)[C@@H](CN(C)S(C)(=O)=O)Oc2ccc(NC(=O)Nc3ccc(F)cc3)cc2CC1=O | 7 | 12 |
| C=CCNC(=O)[C@H]1[C@@H]2C(=O)O[C@@H](c3ccccc3)[C@@H](c3ccccc3)N2[C@@H](c2ccccc2OCCO)[C@]12C(=O)Nc1ccc(C#CCC(C(=O)OC)C(=O)OC)cc12 | -24 | -14 |
| Cc1ccc(S(=O)(=O)N[C@@H]2CC[C@H](CCNC(=O)Nc3ccc(Cl)cc3)O[C@H]2CO)cc1 | -33 | -21 |
| C[C@H]1CN([C@@H](C)CO)C(=O)c2cc(Br)cnc2O[C@H]1CN(C)C(=O)c1cccnc1 | 20&16 | 5&13 |
| CCCC#Cc1ccc2c(c1)O[C@@H](CN(C)CC1CCCC1)[C@H](C)CN([C@H](C)CO)S2(=O)=O | 10 | 2 |
| O=C(C[C@@H]1CC[C@@H]2[C@H](COC[C@@H](O)CN2Cc2ccccc2)O1)NCCCN1CCOCC1 | 9 | 3 |
| COc1ccccc1NC(=O)N1CCCCN2[C@H](C1)[C@H](c1ccc(-c3cccc(F)c3)cc1)[C@@H]2CO | -15 | -9 |
| O=C(Nc1ccccc1F)N[C@H]1C=C[C@H](CC(=O)N2CCCCC2)O[C@@H]1CO | -10 | 4 |
| O=C(C[C@@H]1C=C[C@H](NC(=O)NC2CCCCC2)[C@@H](CO)O1)NCc1ccc(F)cc1 | -5 | 9 |
| C[C@@H]1CN([C@@H](C)CO)S(=O)(=O)c2ccc(C#CC3(O)CCCC3)cc2O[C@H]1CN(C)C(=O)c1ccccc1 | -13 | -3 |
| Cc1ccc(-c2cnc3c(c2)C(=O)N([C@H](C)CO)C[C@@H](C)[C@H](CN(C)C(=O)Cc2ccccc2)O3)cc1 | -19 | -23 |
| CC(C)NC(=O)N(C)C[C@H]1Oc2ccc(NC(=O)Nc3ccc4c(c3)OCO4)cc2CC(=O)N([C@H](C)CO)C[C@@H]1C | 10 | 1 |
| COc1ccccc1NC(=O)N(C)C[C@H]1Oc2ncc(Br)cc2C(=O)N([C@H](C)CO)C[C@H]1C | 0 | 12 |
| N#C[C@@H]1[C@@H](c2ccccc2-c2ccccc2)[C@H](CO)N1C(=O)Cc1ccccc1 | 11 | 12 |
| CCCNC(=O)C[C@H]1CC[C@@H]2[C@@H](COc3ccc(NC(=O)c4ccc5c(c4)OCO5)cc3C(=O)N2C)O1 | 1 | 4 |
| Cc1noc(C)c1S(=O)(=O)Nc1ccc2c(c1)C(=O)N([C@@H](C)CO)C[C@H](C)[C@@H](CN(C)CC1CC1)OCCCC[C@@H](C)O2 | 3 | 2 |

Single records (already shown). Values in the order: Vaccinia stage | Vaccinia stage Venus
`COc1cccc(CNC(=O)[C@@H]2[C@@H](CO)[C@@H]3Cn4c(cccc4=O)[C@H]2N3C(=O)C2CC2)c1` in the list: 19 | 13
`Cc1ccc(-c2cnc3c(c2)C(=O)N([C@H](C)CO)C[C@@H](C)[C@H](CN(C)C(=O)Cc2ccccc2)O3)cc1` in the list: -19 | -23
`Cc1ccc(S(=O)(=O)N[C@@H]2CC[C@H](CCNC(=O)Nc3ccc(Cl)cc3)O[C@H]2CO)cc1` in the list: -33 | -21

(cont.)
| molecule | Vaccinia stage | Vaccinia stage Venus |
| --- | --- | --- |
| COCC(=O)N1CC2(C1)[C@H](c1ccc(-c3ccccc3)cc1)[C@H](CO)N2C(=O)COC | 22 | 12 |
| COCCNC(=O)C[C@H]1C[C@@H]2c3cc(NC(=O)CN(C)C)ccc3O[C@@H]2[C@@H](CO)O1 | -1 | 0 |
| COc1ccc(NC(=O)Nc2ccc3c(c2)CC(=O)N([C@H](C)CO)C[C@H](C)[C@@H](CN(C)Cc2ccc4c(c2)OCO4)O3)cc1 | -31 | -19 |
| C=CC[C@@]12N=C(c3ccc(OCCCO)cc3)O[C@@H]1c1ccccc1CN(CCS(=O)(=O)c1ccccc1)C2=O | ? | · |
| CCCC(=O)Nc1ccc2c(c1)OC[C@H](C)N(C(C)=O)C[C@@H](C)[C@H](OC)CN(C)C2=O | -1 | 1 |
| C[C@@H]1CN([C@@H](C)CO)C(=O)c2cccc(NC(=O)c3ccncc3)c2O[C@H]1CN(C)Cc1ccc(-c2ccccc2)cc1 | ? | · |
| Cc1ccc(S(=O)(=O)Nc2ccc3c(c2)C(=O)N([C@@H](C)CO)C[C@@H](C)[C@@H](CN(C)C)O3)cc1 | 13 | -1 |
| CN(C)CCCNC(=O)C[C@H]1CC[C@@H]2[C@H](COC[C@H](O)CN2CC2CCCCC2)O1 | -7 | -6 |
| C[C@@H]1CN([C@H](C)CO)C(=O)c2cc(-c3cccc(C(=O)N(C)C)c3)cnc2O[C@H]1CN(C)C | 36 | 20 |
| C[C@H](CO)N1C[C@H](C)[C@@H](CN(C)S(=O)(=O)c2ccc(F)cc2)Oc2cc(-c3cccc(F)c3)ccc2S1(=O)=O | -28 | -25 |
| C/C=C/c1cnc2c(c1)C(=O)N([C@H](C)CO)C[C@@H](C)[C@H](CN(C)C(=O)Nc1cccc(OC)c1)O2 | 13 | 5 |
| O=C(CCN1CCCCC1)N[C@H]1CC[C@H](CCn2cc(-c3ccccc3)nn2)O[C@H]1CO | -4 | 8 |
| C[C@H](CO)N1C[C@H](C)[C@@H](CN(C)S(=O)(=O)c2cn(C)cn2)Oc2c(NC(=O)C3CCOCC3)cccc2C1=O | 10 | 2 |
| CC(C)CC#Cc1ccc([C@H]2[C@H](CO)N3C(=O)CN(C(=O)Nc4ccc(F)cc4)C[C@@H]23)cc1 | -31 | -22 |
| O=C(C[C@H]1CC[C@H]2[C@@H](COC[C@@H](O)CN2S(=O)(=O)c2ccccc2)O1)NCc1ccc(-c2ccccc2)cc1 | -33 | -28 |
| CN(C)C(=O)C[C@H]1CC[C@H]2[C@H](COc3ccc(NC(=O)C4CCCC4)cc3C(=O)N2C)O1 | 3 | -7 |
| COc1ccc(CNC(=O)C[C@H]2CC[C@H](NC(=O)c3cccc(F)c3)[C@H](CO)O2)cc1 | 3 | 9 |
| Cc1ccc(S(=O)(=O)N(C)C[C@H]2OCCCC[C@H](C)Oc3ccc(NS(=O)(=O)c4cccs4)cc3C(=O)N([C@H](C)CO)C[C@H]2C)cc1 | -28 | -20 |
| C[C@H]1CN([C@@H](C)CO)C(=O)c2cccc(NC(=O)c3ccncc3)c2O[C@@H]1CN(C)Cc1ccc(C(=O)Nc2ccccc2N)cc1 | 12 | 11 |
| C[C@@H]1CN([C@@H](C)CO)C(=O)Cc2cc(NC(=O)Cn3cnnn3)ccc2O[C@@H]1CN(C)C | 6 | 10 |

Structural class, those above containing a cyano group.
| molecule | Vaccinia stage | Vaccinia stage Venus |
| --- | --- | --- |
| C[C@H](CO)N1C[C@H](C)[C@H](CN(C)Cc2cccnc2)Oc2ncc(-c3ccc(C#N)cc3)cc2C1=O | 9 | 8 |
| N#C[C@@H]1[C@@H](c2ccccc2-c2ccccc2)[C@H](CO)N1C(=O)Cc1ccccc1 | 11 | 12 |

Going on with the list:
Results follow in this order: Vaccinia stage, Vaccinia stage Venus
> CCCNC(=O)N1C[C@@H](C)[C@@H](OC)CN(C)C(=O)c2ccc(NC(C)=O)cc2OC[C@@H]1C
    -7, -4
> C[C@@H]1CN([C@H](C)CO)C(=O)c2cccc(NS(C)(=O)=O)c2O[C@@H]1CN(C)Cc1ccc(C(=O)Nc2ccccc2N)cc1
    10, 7
> C[C@@H]1CN([C@@H](C)CO)C(=O)c2cc(NS(=O)(=O)c3ccc(F)cc3)ccc2O[C@@H](C)CCCCO[C@H]1CN(C)Cc1ccccc1
    ?, ·
> O=C(c1cccnc1)N1CC[C@H]2[C@H](CO)Nc3ccc(-c4cccc(F)c4)cc3[C@H]21
    3, 2
> CO[C@H]1CN(C)C(=O)c2cc(NS(=O)(=O)c3ccccc3C)ccc2OC[C@@H](C)N(C)C[C@@H]1C
    -5, 8
> CC(=O)N(C)C[C@H]1Oc2cc(C#C[C@@H](C)O)ccc2S(=O)(=O)N([C@@H](C)CO)C[C@@H]1C
    14, 4
> O=S(=O)(N[C@@H]1CC[C@@H](CCn2cc(-c3ccccc3F)nn2)O[C@@H]1CO)c1ccc(Cl)cc1
    -2, -2
> CO[C@H]1CN(C)C(=O)c2ccc(NC(=O)C3CC3)cc2OC[C@H](C)N(CC2CCOCC2)C[C@@H]1C
    10, 9
> CC(=O)N1[C@@H](CO)[C@H](c2ccccc2)C12CN(C(=O)c1ccccc1)C2
    5, 1
> COc1ccc(CN(C)C[C@@H]2OCCCC[C@@H](C)Oc3ccc(NC(=O)CCC(F)(F)F)cc3C(=O)N([C@@H](C)CO)C[C@H]2C)cc1
    -27, -26

As entered above.
In Vaccinia stage Venus, COc1ccc(CN(C)C[C@@H]2OCCCC[C@@H](C)Oc3ccc(NC(=O)CCC(F)(F)F)cc3C(=O)N([C@@H](C)CO)C[C@H]2C)cc1 reads -26
In Vaccinia stage Venus, CC(=O)N(C)C[C@H]1Oc2cc(C#C[C@@H](C)O)ccc2S(=O)(=O)N([C@@H](C)CO)C[C@@H]1C reads 4
In Vaccinia stage, C[C@@H]1CN([C@H](C)CO)C(=O)c2cccc(NS(C)(=O)=O)c2O[C@@H]1CN(C)Cc1ccc(C(=O)Nc2ccccc2N)cc1 reads 10

Sorted by molecular weight (largest number first): some entries from above.
Results follow in this order: Vaccinia stage, Vaccinia stage Venus
> C[C@@H]1CN([C@@H](C)CO)C(=O)c2cc(NS(=O)(=O)c3ccc(F)cc3)ccc2O[C@@H](C)CCCCO[C@H]1CN(C)Cc1ccccc1
    ?, ·
> CO[C@H]1CN(C)C(=O)c2ccc(NC(=O)C3CC3)cc2OC[C@H](C)N(CC2CCOCC2)C[C@@H]1C
    10, 9
> CC(=O)N1[C@@H](CO)[C@H](c2ccccc2)C12CN(C(=O)c1ccccc1)C2
    5, 1

Next compounds:
Results follow in this order: Vaccinia stage, Vaccinia stage Venus
> O=C(C[C@@H]1CC[C@H](NC(=O)Nc2ccc(F)cc2)[C@@H](CO)O1)NCCN1CCCC1
    18, 13
> C[C@@H]1CN([C@@H](C)CO)C(=O)Cc2cc(NS(=O)(=O)c3cccs3)ccc2O[C@@H]1CN(C)C(=O)Nc1ccc(F)cc1
    21, 21
> C[C@H]1CN([C@@H](C)CO)C(=O)c2cccc(NC(=O)CCCCCC(=O)Nc3ccccc3N)c2O[C@@H]1CN(C)CC1CC1
    ?, ·
> Cc1noc(C)c1S(=O)(=O)Nc1ccc2c(c1)C(=O)N([C@H](C)CO)C[C@@H](C)[C@@H](CN(C)C(=O)Nc1cccc3ccccc13)OCCCC[C@@H](C)O2
    -4, 9
> C/C=C/c1ccc2c(c1)O[C@H](CN(C)C(=O)NC(C)C)[C@@H](C)CN([C@@H](C)CO)S2(=O)=O
    -3, -8
> COCC(=O)N1[C@@H](CO)[C@H](c2ccc(-c3cccc(OC)c3)cc2)C12CN(C(C)=O)C2
    3, 1
> CC(C)NC(=O)N(C)C[C@@H]1Oc2c(NC(=O)c3ccncc3)cccc2C(=O)N([C@H](C)CO)C[C@H]1C
    10, 8
> C[C@H](CO)N1C[C@H](C)[C@@H](CN(C)S(=O)(=O)c2ccc(Cl)cc2)Oc2c(NC(=O)c3nc4ccccc4s3)cccc2C1=O
    -15, -5
> C[C@@H]1CN([C@H](C)CO)C(=O)c2cccc(NC(=O)c3ccc(-c4nccs4)cc3)c2O[C@@H]1CN(C)S(=O)(=O)c1cn(C)cn1
    29, 13
> CC(=O)N(C)C[C@H]1Oc2ncc(-c3ccc(C#N)cc3)cc2C(=O)N([C@@H](C)CO)C[C@@H]1C
    4, 5

(next part)
Results follow in this order: Vaccinia stage, Vaccinia stage Venus
> COCC(=O)N(C)C[C@H]1Oc2ncc(C#CC3(O)CCCC3)cc2C(=O)N([C@H](C)CO)C[C@H]1C
    -2, -3
> Cc1noc(C)c1NC(=O)N[C@H]1C=C[C@H](CC(=O)Nc2ccc(-c3ccccc3)cc2)O[C@H]1CO
    6, 11
> O=C(Nc1ccccc1)Nc1ccc2c(c1)[C@@H]1C[C@@H](CC(=O)N3CCCCC3)O[C@H](CO)[C@@H]1O2
    -1, -1
> C[C@@H](NC(=O)C[C@H]1C=C[C@@H](NS(=O)(=O)c2cccc(F)c2)[C@@H](CO)O1)c1ccccc1
    -29, -24
